HIV Env fusion: blocks HIV Env-driven cell-cell fusion. 360,000 compounds, 1.1% hits. HeLa-JRFL Env/CEM21 cell fusion, luciferase. inhibition, % at 12.3 µM;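 active means mean replicate inhibition score of at least 50 and every replicate individually at or above 50; inconclusive means only one of the two criteria met; inactive means mean below 50 and not all replicates reaching 50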;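 further: 0% = plate neutral controls and 100% = maraviroc near 300 nM; one replicate is shown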
CSC inhib: blocks cancer stem cells. cancer stem cell-like cells viability, luminescence. inhibition, % at 7.5 µM. 300,000 compounds, 1.1% hits. AID 2717;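 active means mean at 75% or more and at least half the replicates too; inconclusive means mean and replicates disagree; tested in HMLE shEcad cells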;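 further: 0% = median of negative and 100% = median of positive control wells; the first replicate is given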
Rce1 inhib: blocks yeast Ras-converting enzyme | yeast membranes, quenched prenylated peptide cleavage fluorescence | 290,000 compounds, 0.27% hits | calls only | Q03530;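 active means fall in fluorescence gain of 50% or more versus controls, with final raw signal at or below 3038400; inconclusive means same 50% fall but final raw signal above 3038400; inactive means fall in fluorescence gain under 50%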;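 further: plate controls were neutral control wells for no effect and wells lacking membranes for full effect; tested at 10 µM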
Target sequence (Q03530 whole entry, looked up): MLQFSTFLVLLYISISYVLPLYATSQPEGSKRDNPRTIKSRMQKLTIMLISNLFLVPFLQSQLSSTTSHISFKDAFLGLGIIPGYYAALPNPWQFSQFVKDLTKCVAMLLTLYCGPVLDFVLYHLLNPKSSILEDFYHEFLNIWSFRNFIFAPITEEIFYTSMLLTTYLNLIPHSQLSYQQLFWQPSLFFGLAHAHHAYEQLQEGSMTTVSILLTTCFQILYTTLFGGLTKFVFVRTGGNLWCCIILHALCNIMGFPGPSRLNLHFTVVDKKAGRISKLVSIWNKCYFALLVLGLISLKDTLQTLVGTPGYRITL
eIF4H FP inh: inhibitors of RNA binding by human eIF4H; Q15056; 290,000 compounds, 0.94% hits; inhibition, % at 35 µM; eIF4H fluorescence polarization binding assay;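 active means 50% or more with normal probe brightness, or confirmed in later tests; inconclusive means above 50% with abnormal brightness, or retests that disagree; inactive means below 50% or failed in later tests; about a fifth of its hits are not listed in these tables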;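 further: calls also rest on retests at 20 µM and on dose response follow-up; 0% = protein and probe with vehicle and 100% = probe without protein; strong numbers were not always called active; many hits fall short of the cut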
Yeast UUG start: alters start codon recognition fidelity in yeast; activity score, % at 18.7 µM; AID 602363; S. cerevisiae UUG-firefly luciferase reporter, luminescence/redox ratio; 350,000 compounds, 0.13% hits;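 active means replicate mean at a twofold rise or more, about +100% in these data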;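 further: firefly luciferase made from a UUG start codon reports start codon fidelity; reporter light over untreated wells divided by growth signal over untreated wells; some hits fall short of that in this replicate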
MT1-MMP act inh: blocks activation of human MT1-MMP; P50281; HT1080 RFP-PRO-GFP cells, GFP/RFP ratio fluorescence, overnight; percent of plate control window, DMSO zero; GFP/RFP ratio change, % at 20 µM; 360,000 compounds, 0.061% hits; AID 651647;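 active means GFP/RFP ratio change of at least 30% with cell ATP level not reduced by more than half and red fluorescence within 50% of control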; further: strong numbers were not always called active
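Compound: 20 µM single dose, 1% DMSO / System: HT1080 RFP-PRO-GFP cells / Controls: DMSO and RFP-L50D-GFP cell wells / Read-out basis: GFP/RFP fluorescence ratio / Schedule: overnight compound exposure at 37 °C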
PABP FP inh: blocks human PABP binding to poly(A) RNA. 290,000 compounds, 1% hits. fluorescence polarization. inhibition, % at 35 µM;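 active means 50% or more with normal probe brightness, or confirmed in later tests; inconclusive means above 50% with abnormal brightness, or retests that disagree; inactive means below 50% or failed in later tests; about a fifth of its hits are not listed in these tables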;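 further: calls also rest on retests at 20 µM and on dose response follow-up; controls were probe without protein and protein plus probe with vehicle; some compounds called inactive have numbers as strong as hits; many hits fall short of the cut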
eIF4H FP inh retest: second read-out of eIF4H FP inh, no call of its own (marks repeat the call); inhibition, %; compound at 20 µM; confirmation average;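 mean of two retest wells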
PABP FP inh retest: second read-out of PABP FP inh, no call of its own (marks repeat the call); inhibition, %; compound at 20 µM; confirmation repeats;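 mean of two retest wells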
MT1-MMP act inh RFP: recorded beside MT1-MMP act inh, whose call it bears; RFP signal change, %; measured here: RFP expression control read;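 0 = vehicle wells; hits needed this value within 50% of zero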
* hit, by the source's call; i = inactive; ? = inconclusive; · = no result given; & = joins results of further samples; [ ] = dose if it differs, or a comment. This is a subset; the hit share may differ from the screen's.

SMILES	HIV Env fusion	CSC inhib	Rce1 inhib	eIF4H FP inh	Yeast UUG start	MT1-MMP act inh	MT1-MMP act inh RFP	PABP FP inh	others
CN(CC1CCOCC1)C(=O)CC1C(=O)NCCN1Cc1ccc(Cl)c(F)c1 (stereo not given)	11.4	·	i	19.7	11.7	1.6	3.7	2.8
O=C(CC1CCCCC1)NCCOc1ccccc1	11.3	-10.9	i	2.9	·	0.6	-5.7	-2.5
CCN(CC)S(=O)(=O)c1ccc(C(=O)Nc2nnc(COC)o2)cc1	13.0	-1.7	i	10.7	·	1.6	3.7	-1.6
CNC(=O)C1CC(=O)N(c2ccc(OCC(=O)N3CCCC3)cc2)C1 (stereo not given)	-11.4	·	i	6.7	-18.4	0.1	0.6	10.1
CCOc1ncccc1C(=O)Nc1cccc(-n2cnnn2)c1C	-0.4	1.1	·	·	-4.4	0.0	0.2	·
COc1ccccc1NCCC(=O)OCC(=O)Nc1cc([N+](=O)[O-])ccc1F	-7.1	·	·	·	-7.5	5.7	4.8	·
COc1cc2c(cc1N/C=C(\C#N)c1nc(-c3ccccc3)cs1)oc1ccccc12	-3.0	4.5	i	?	·	-6.9	3.4	0.1
COc1ccc(-c2cn(-c3ccc(C)c(Cl)c3)c(=S)[nH]2)cc1OC	9.2	20.1	i	2.5	·	4.1	-2.7	-7.4
Nc1c(C(=O)NC2CCCC2)sc2nc(-c3cccs3)ccc12	-28.9	-8.4	i	9.5	·	-10.9	-7.6	9.3
Clc1cccc(Nc2ncnc3ccc(Br)cc23)c1	·	57.8	i	2.1	-4.0	-29.0	-25.0	-1.6
Fc1ccc(CNc2ccc(N3CCN(Cc4ccccc4)CC3)cc2)cc1	14.7	20.9	i	14.0	-7.6	7.9	-8.6	-7.4
O=C(CSc1nnc(-c2ccc(F)cc2)o1)NC1CCCCC1	10.1	-13.3	i	-14.8	·	-1.0	-4.2	-0.4
O=C(CN1C(=O)COc2ccc(S(=O)(=O)N3CCCC3)cc21)NC1CCCCCCC1	·	-9.0	i	-10.5	·	·	·	-1.8
Cc1ccc(C(C)C)c(OCC(=O)OCc2c(C)noc2C)c1	-15.6	-6.3	i	-2.1	-1.1	-5.5	-1.9	-6.3
CN(C)/C=C(\C(=O)c1cccc(Cl)c1)c1nnnn1-c1ccccc1	7.4	-7.0	i	-4.2	-19.9	-2.3	-1.6	-9.0
Nc1c(C(=O)O)sc2nc3c(cc12)CCCC3	-3.0	-8.9	i	7.1	-14.9	0.0	2.3	2.4
O=C(O)c1cccc(NS(=O)(=O)c2cccc3nsnc23)c1	·	-12.5	i	6.1	-17.6	-1.3	5.8	12.0
COc1ccc(NS(=O)(=O)c2cccc(NC(=O)COc3ccccc3[N+](=O)[O-])c2)cc1	0.1	-11.2	·	·	-11.3	-0.1	-16.3	·
COc1ccccc1Cn1c(=S)[nH]c2cc(C(=O)N3CCN(c4ccccc4OC)CC3)ccc2c1=O	-3.1	-6.9	i	-5.8	-23.2	-1.8	-0.6	4.1
CCN(CC(=O)Nc1c(F)cccc1F)C(=O)c1ccc2c(c1)C(=O)N(c1ccccc1C)C2=O	9.7	·	·	·	-6.2	6.8	2.5	·
O=C(NCc1ccc(Cl)cc1)C1CCN(C(=O)c2ccco2)CC1	4.6	-15.6	i	-10.4	-34.1	0.1	7.6	4.6
CCCCNC(=O)C1CC(c2ccccc2[N+](=O)[O-])=NO1 (stereo not given)	-1.3	-14.6	i	3.4	-0.1	2.2	7.6	1.5
N#CC(=C=[N-])C1=C(C#N)C(c2ccccc2F)C([n+]2ccccc2)C(O)(C2CC2)N1 (stereo not given)	·	-15.3	i	27.1	-20.2	-4.6	8.8	21.7
O=C(NCC(=O)N1CCN(S(=O)(=O)c2cccs2)CC1)c1ccc(Cl)cc1	-9.6	6.2	i	9.4	9.4	-5.0	0.4	-9.2
Cn1c2ccccc2c2ncn(Cc3ccc(F)cc3)c(=O)c21	0.6	5.1	i	-7.3	-21.3	4.4	1.1	-3.6
The list continues:
SMILES	HIV Env fusion	CSC inhib	Rce1 inhib	eIF4H FP inh	Yeast UUG start	MT1-MMP act inh	MT1-MMP act inh RFP	PABP FP inh	others
O=C(CCN1CCN(CCO)CC1)Nc1ccccc1	7.9	-12.0	i	4.1	-22.3	-0.9	0.7	0.1
CN(C)c1nc(OCCOC(=O)Nc2ccc(Cl)cc2Cl)nc(N(C)C)n1	·	-7.3	i	2.6	·	-3.2	-1.2	3.4
COC(=O)C(Cc1cnc(Cl)s1)(C(=O)OC)c1ccc([N+](=O)[O-])cc1[N+](=O)[O-]	·	6.8	i	-6.8	14.9	0.6	0.2	-7.4
Cc1ccccc1NC(=O)c1cc2ccccn2n1	-30.6	8.9	i	4.6	-24.1	-0.4	-3.5	10.0
Cc1ccc(S(=O)(=O)N2CCCC2)cc1C(=O)N1CCN(Cc2ccccc2)CC1	1.3	-0.5	·	-8.9	-17.9	-2.1	-2.3	-14.4
CC(C)N(C)Cc1nnnn1CC(=O)N(C)Cc1ccc(F)cc1	2.1	5.7	i	28.9	-32.8	-2.1	-0.2	33.9
COc1ccccc1N(CC(=O)N/N=C/c1ccc(SC)cc1)S(C)(=O)=O	1.9	-6.0	i	6.6	·	1.9	4.0	-6.7
O=C(CN1C(=O)NC2(CCCCC2)C1=O)Nc1ccc(S(=O)(=O)N2CCOCC2)cc1	-11.5	-18.1	·	-5.6	-14.4	2.6	4.9	2.4
O=C(C1=C(O)C(=O)N(CC2CCCO2)C1c1ccccc1Cl)c1ccco1 (stereo not given)	2.3	-10.8	i	-0.5	-21.5	-2.2	-0.9	15.2
COc1cc(F)c(C(=O)NC(C)(C)CO)cc1OC	-5.7	11.1	i	·	-9.5	0.2	1.4	·
Cc1cccc(C(C)C)c1NC(=O)CN1C(=O)NC(Cc2ccccc2)C1=O (stereo not given)	7.5	-0.2	i	·	·	0.0	3.7	·
CC1(C)CC(=O)C(C(O)c2ccc([N+](=O)[O-])cc2)C(C)(C)N1 (stereo not given)	-3.4	61.3	i	-5.6	-12.5	3.1	2.0	-2.4
Cc1ccc(OCC(=O)OC(C)CN2CCCCC2)cc1 (stereo not given)	-6.2	-15.8	i	0.7	-8.4	4.4	-0.3	15.4
COc1ccc(NC(=O)CCN2CCN(S(=O)(=O)c3ccc(OC)cc3)CC2)cc1	-5.4	-6.8	i	-11.6	-16.3	2.8	-4.2	-1.8
CCOC(=O)C1=C(C)N(CCCCCC(=O)O)C(=O)NC1c1cccc([N+](=O)[O-])c1 (stereo not given)	-13.0	-13.4	i	-3.3	-13.6	2.1	2.1	12.5
CCc1ccc2[nH]cc(S(=O)(=O)c3ccc(C)c(C)c3)c(=O)c2c1	-12.7	-4.0	i	-3.0	7.9	4.6	-8.1	3.0
Cc1nnc(SCC(=O)NC(C)(C)C)n1CCc1ccccc1	·	·	i	0.5	-14.9	0.9	4.3	-10.2
Nc1ccc2c(c1)OC1(CCCC1)O2	24.0	19.1	i	25.3	·	-24.1	7.8	-14.6
C=CCC(C#N)(c1ccc(OC)c(OC)c1)c1cnccn1 (stereo not given)	10.3	4.5	i	·	-11.5	1.6	3.2	·
CC(=O)C1C(c2ccc(F)cc2)C2C(C)=NN=C2CC1(C)O (stereo not given)	-18.0	5.1	i	-17.1	·	-2.0	3.4	2.7
COc1cnc(N(C)C)nc1Sc1cccc(Cl)c1	-9.7	9.6	i	-6.1	-11.6	6.5	-5.1	-10.7
Cc1cc(NCc2ccccn2)n2c(nc3ccccc32)c1C#N	17.2	·	i	0.3	·	-0.6	-4.1	5.2
O=C1NC(c2ccccc2)=C(c2ccc3ccccc3n2)C(c2ccncc2)N1 (stereo not given)	3.0	·	i	1.8	-25.8	-0.9	4.0	-5.0
CC(C)(Oc1ccc(Cl)cc1)C(=O)OCC(=O)NCCc1ccc(S(N)(=O)=O)cc1	33.1	·	·	·	-12.7	5.0	2.7	·
COc1ccc(COC(=O)Nc2cn(C)nc2C(F)(F)F)cc1	-1.3	3.6	i	-0.2	·	-1.4	-3.1	5.2

Seven structures out of the list, arranged by SMILES length, lowest first:
SMILES	HIV Env fusion	CSC inhib	Rce1 inhib	eIF4H FP inh	Yeast UUG start	MT1-MMP act inh	MT1-MMP act inh RFP	PABP FP inh	others
O=C(CCN1CCN(CCO)CC1)Nc1ccccc1	7.9	-12.0	i	4.1	-22.3	-0.9	0.7	0.1
Cc1nnc(SCC(=O)NC(C)(C)C)n1CCc1ccccc1	·	·	i	0.5	-14.9	0.9	4.3	-10.2
COc1ccc(COC(=O)Nc2cn(C)nc2C(F)(F)F)cc1	-1.3	3.6	i	-0.2	·	-1.4	-3.1	5.2
CC(C)N(C)Cc1nnnn1CC(=O)N(C)Cc1ccc(F)cc1	2.1	5.7	i	28.9	-32.8	-2.1	-0.2	33.9
CN(C)c1nc(OCCOC(=O)Nc2ccc(Cl)cc2Cl)nc(N(C)C)n1	·	-7.3	i	2.6	·	-3.2	-1.2	3.4
COc1ccc(NC(=O)CCN2CCN(S(=O)(=O)c3ccc(OC)cc3)CC2)cc1	-5.4	-6.8	i	-11.6	-16.3	2.8	-4.2	-1.8
O=C(CN1C(=O)NC2(CCCCC2)C1=O)Nc1ccc(S(=O)(=O)N2CCOCC2)cc1	-11.5	-18.1	·	-5.6	-14.4	2.6	4.9	2.4

The main list resumes with the four entries that preceded the break.
SMILES	HIV Env fusion	CSC inhib	Rce1 inhib	eIF4H FP inh	Yeast UUG start	MT1-MMP act inh	MT1-MMP act inh RFP	PABP FP inh	others
Cc1cc(NCc2ccccn2)n2c(nc3ccccc32)c1C#N	17.2	·	i	0.3	·	-0.6	-4.1	5.2
O=C1NC(c2ccccc2)=C(c2ccc3ccccc3n2)C(c2ccncc2)N1 (stereo not given)	3.0	·	i	1.8	-25.8	-0.9	4.0	-5.0
CC(C)(Oc1ccc(Cl)cc1)C(=O)OCC(=O)NCCc1ccc(S(N)(=O)=O)cc1	33.1	·	·	·	-12.7	5.0	2.7	·
COc1ccc(COC(=O)Nc2cn(C)nc2C(F)(F)F)cc1	-1.3	3.6	i	-0.2	·	-1.4	-3.1	5.2
CS(=O)(=O)N1CCC(C(=O)N2CCc3ccccc3C2)CC1	·	-1.7	i	-8.0	-0.7	-1.9	2.2	-12.5
CCOC(=O)c1ccc(NC(=O)c2ccccc2N(C)S(=O)(=O)c2ccccc2)cc1	7.4	9.1	i	-8.4	·	-2.0	-6.1	-3.9
O=C1CN(C(=O)COC(=O)c2ccccc2Br)c2ccccc2N1	·	5.2	·	·	-11.3	1.8	0.5	·
O=C(CN1CCCSc2ccccc21)N1CCN(S(=O)(=O)c2cccc(F)c2)CC1	3.6	·	·	·	0.8	-0.6	-6.8	·
COc1ccc(-n2c(COc3cccc(C)c3)nnc2SCC(=O)NCc2ccco2)cc1	23.1	-11.1	i	2.5	5.3	-1.5	0.9	5.9
C[C@H](CO)N1C[C@H](C)[C@@H](CN(C)C(=O)NC2CCCCC2)Oc2c(NC(=O)C3CCCCC3)cccc2C1=O	-5.3[16.7 µM]	·	·	·	2.7&-1.4	1.9	5.2	·
CN(C)CCOc1cccc(Cl)c1	-16.6	-4.8	i	1.3	·	-0.4	1.9	61.5	eIF4H FP inh retest=-12.8;PABP FP inh retest=2.4
COc1ccc(NC(=O)c2cccnc2SC)cc1S(=O)(=O)N1CCCCC1	15.5	10.0	i	-1.7	·	5.2	8.8	-6.9
